Screening data from PubChem.
CDC25B-CDK2 inh = human CDC25B-CDK2/CyclinA binding inhibition; P30305+P24941; HTRF CDC25B-CDK2/CyclinA binding, anti-His/anti-Flag; active compounds read high; z-score (no concentration beside the values); 94,000 tested, 0.72% active;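 also: score is relative to mean and SD of negative controls; strong numbers were not always called active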
TAR Tat displ = HIV-1 TAR-Tat binding disruption; HIV-1 TAR RNA, Tat peptide displacement FRET; active compounds read high; z-score (no concentration beside the values); 100,000 tested, 0.6% active; AID 1259389;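 also: score is relative to mean and SD of negative controls; some compounds called inactive have numbers as strong as hits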
Active calls of the source: *; . = not tested or not shown.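 The calls were made as follows: active = z-score from 3 up in half or more of its runs; inactive = the rest.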

SMILES	CDC25B-CDK2 inh	TAR Tat displ
CCCc1cc(=O)n2nc(N(C)CC(=O)NCc3ccc(CC)cc3)sc2n1	-0.89	2.26
Cc1nc(N2CCOCC2)ncc1C(=O)NCCCN1CCOCC1	.	1.08
Cc1cc(=O)c2c(ccc3ccccc32)[nH]1	1.83	.
CCc1nc2nc(C)cc(Nc3cc(Cl)ccc3C)n2n1	-0.41	-0.57
CSc1nnc(-c2nonc2NC(C)=O)n1C	-1.7	0.81
CCn1c(/C=C/c2cccc(Br)c2)nc2ccccc2c1=O	-1.3	0.53
Cc1nn(-c2ccc3nncn3n2)c2c1C(c1ccccc1OCc1ccccc1Cl)CC(=O)N2 (configuration not stated)	2.39	1.68
O=C(CCc1nnc2ccc(NCc3ccc4c(c3)OCO4)nn12)Nc1cc(F)ccc1F	.	0.32
CCc1c(O)nc2n(c1=O)CCCS2	-2.69	2.3
N#Cc1ccc(N2CCS(=NS(=O)(=O)c3ccc(Cl)cc3)CC2)c([N+](=O)[O-])c1	-1.18	.
C/C=C/Cn1c(N(C)Cc2ccccc2)nc2c1c(=O)[nH]c(=O)n2C	0.25	1.51
Cc1cc(C)c(NC(=O)CSc2nnc(NC(=O)C3CCC3)s2)c(C)c1	-0.21	-0.03
COCCNc1cc(-n2nc(C)cc2C)ncn1	.	1.23
O/N=C1\COc2ccccc2O1	-1.46	.
O=C(OCc1ccccc1)C(O)C(O)C(=O)OCc1ccccc1 (configuration not stated)	-1.47	.
CCC(C(=O)NC1CCC(C)CC1)n1c2ccccc2c2nc(=O)cc(C)n21 (configuration not stated)	-0.41	0.5
Cn1c(CCc2ccc(NS(=O)(=O)c3cc(F)ccc3F)cc2)nc2ccccc21	.	0.6
Cc1c(OCC(=O)O)ccc2c3c(c(=O)oc12)CCC3	-0.57	.
Cc1cc(C)nc(-n2[nH]c(C)c(Cc3ccc(Br)cc3)c2=O)n1	-0.39	-1.58
CC(=O)N1CCC2(CC1)OC(=O)C(C)=C2C(=O)NCCC1=CCCCC1	.	1.23
O=S(=O)(CCS(=O)(=O)c1ccccn1)c1ccc(Cl)cc1	-1.01	.
C#CC(CC)(CC)NC(=O)C(CC)c1ccccc1 (configuration not stated)	-1.89	.
O=C(Nc1ccc2c(c1)OCO2)C1CCC(=O)N1S(=O)(=O)c1ccccc1 (configuration not stated)	.	1.76
Cc1ccc2nc3sc(C(=O)O)cc3cc2c1	-0.83	-1.19
Nc1ccc(Cc2nc3cc4ccccc4cc3[nH]2)cc1	-0.74	0.64
CCOc1ccc(-n2c(=O)c3c4c(sc3n(CC(=O)NCC3CCCO3)c2=O)CCC4)cc1 (configuration not stated)	-1.99	.
O=C(CSc1ncnc2c1sc1cccc(F)c12)N1CCN(c2ccccn2)CC1	.	0.07
Cc1cccc(C2CCCN2S(=O)(=O)c2cccc3nsnc23)c1 (configuration not stated)	1.49	-0.88
CCn1nccc1C1CCCN1C(=O)Nc1ccc(F)c(Cl)c1 (configuration not stated)	-2.3	-0.89
Cc1ccc(CN2N=NC3C(=O)NC(=O)C32)cc1 (configuration not stated)	-2.74	0.2
CN(Cc1cnn(-c2ccccc2)c1)C(=O)C1CCN(c2ccc(-c3cccs3)nn2)CC1	.	1.25
N#Cc1c(-c2ccccc2)nc2n(c1=O)CCS2	-1.12	-0.27
COCCCNC(=O)c1c(NC(=O)c2csnn2)sc2c1CCCC2	-2.77	1.07
N#Cc1cn(C2CCCCC2)c(=O)[nH]c1=O	-0.24	.
Cc1noc(/C=C/c2cccs2)c1S(=O)(=O)N1CCCC(C(=O)N2CCC(C)CC2)C1 (configuration not stated)	0.12	1.12
CCOc1ccc(-n2cc(-c3ccccc3)c3c(N(C)C)ncnc32)cc1	-1.09	1.11
CC1=C(C(=O)NCCN2CCN(C)CC2)C2(CCC(C)CC2)OC1=O (configuration not stated)	-0.88	.
O=C(CN1C(=O)CC(c2ccco2)Sc2ccccc21)Nc1ccc2c(c1)OCCO2 (configuration not stated)	-0.6	.
CC1=C(C(=O)OC(C)C)C(c2ccc(O)cc2)C2=C(CC(c3ccccc3)CC2=O)N1 (configuration not stated)	-2.03	1.67
CC(=O)Oc1cc(OC(C)=O)c2c(c1)O[C@H](c1ccc(OC(C)=O)c(OC(C)=O)c1)[C@@H](OC(C)=O)C2	.	0.8
Clc1ccc(-c2noc(CCCc3nc4ccccc4[nH]3)n2)cc1	-1.93	-0.2
CCCCOc1ccc(S(=O)(=O)n2nc(C)c(S(=O)(=O)N3CCCC(C)C3)c2C)cc1 (configuration not stated)	.	-0.3
O=S(=O)(Nc1ccc(F)c(F)c1)c1ccc2c(c1)OCCO2	0.64	0.83
COc1ccccc1-c1nc(=S)c2c([nH]1)Oc1cc(O)ccc1C2	-1.48	-3.22
NC(N)=N/N=C\c1cc([N+](=O)[O-])cc(Cl)c1O	0.21	.
CC1CCc2nn(CC(=O)NCC3CCCO3)cc2C1 (configuration not stated)	-0.98	.
CCCc1c(C)nc2ncnn2c1Nc1ccc(N2CCN(S(C)(=O)=O)CC2)cc1	-1.21	-0.25
Cn1ncc2c(Nc3ccc(Cl)cc3)nc(N3CCN(CCO)CC3)nc21	.	0
Cc1ccc2c(=O)cc(C(=O)Nc3sc4c(c3C(=O)NCC3CCCO3)CCC4)oc2c1 (configuration not stated)	0.5	-7.54
COc1ccc(NC2=NS(=O)(=O)C(c3ccc(C)cc3)=C2C)cc1Cl	-1.69	-1.48

Fetched one by one from the entries so far (seven):
SMILES	CDC25B-CDK2 inh	TAR Tat displ
COc1ccc(NC2=NS(=O)(=O)C(c3ccc(C)cc3)=C2C)cc1Cl	-1.69	-1.48
Cn1ncc2c(Nc3ccc(Cl)cc3)nc(N3CCN(CCO)CC3)nc21	.	0
CCCCOc1ccc(S(=O)(=O)n2nc(C)c(S(=O)(=O)N3CCCC(C)C3)c2C)cc1 (configuration not stated)	.	-0.3
NC(N)=N/N=C\c1cc([N+](=O)[O-])cc(Cl)c1O	0.21	.
CC1CCc2nn(CC(=O)NCC3CCCO3)cc2C1 (configuration not stated)	-0.98	.
CCCc1c(C)nc2ncnn2c1Nc1ccc(N2CCN(S(C)(=O)=O)CC2)cc1	-1.21	-0.25
O=S(=O)(Nc1ccc(F)c(F)c1)c1ccc2c(c1)OCCO2	0.64	0.83

Next results.
SMILES	CDC25B-CDK2 inh	TAR Tat displ
Cc1ccc(-c2cnnc(-n3nc(C)c4c3NC(=O)CC4c3cccc(C)c3)n2)cc1 (configuration not stated)	-2.2	1.92
COc1cccc(-c2cc(N3CCN(S(=O)(=O)c4cccc5nsnc45)CC3)ncn2)c1	.	1.59
O=C1CC(c2ccccc2F)Cc2nc(N3CCN(c4ccccc4)CC3)ncc21 (configuration not stated)	-0.78	0.18
CCN(CC)C(=O)CSC1=NS(=O)(=O)c2ccc(C)cc2N1	.	0.96
c1ccc(Nc2n[nH]nc2-c2ccccc2)cc1	0.83	.
O=C(c1cc(-c2ccc(F)cc2)no1)N1CCCC1c1cccs1 (configuration not stated)	0.39	1.74
O=C1c2oc3ccccc3c(=O)c2C(c2ccc(F)cc2)N1c1nncs1 (configuration not stated)	-2.03	2.36
CCOC(=O)c1c(C)n(C)c2cc(Br)c(OC)cc12	-0.31	-0.64
COC(=O)c1c(NC(=O)CSc2nc(C)nc3c2CCC3)sc2c1CCCC2	-0.37	0.5
CC(C)(C)c1ccc(Oc2c(C(F)(F)F)oc3c(CN4CCOCC4)c(O)ccc3c2=O)cc1	-0.86	0.23
CC1=C(C(=O)OC(C)C)C(c2sccc2C)c2c(nc(SCC(C)C)[nH]c2=O)N1 (configuration not stated)	-1.66	1.66
O=C(NCc1ccc2c(c1)OCO2)c1ccc(NC(=O)c2nsc3ccccc23)cc1	.	0.46
Cc1cc(C)c(-c2c(NCC3CCCO3)c(=O)c2=O)cc1C (configuration not stated)	.	1.03
CCCCNc1c(N2CCN(C(=O)OCC)CC2)c(=O)c1=O	-2.41	-0.43
COc1cc(OC)c(NC(=O)CN2C(=O)CSc3ncccc32)cc1Cl	0.42	0.96
CCC(C)[C@@H](C(=O)O)N1Cc2ccccc2C1=O (some centres not stated)	-1.02	0.21
Cc1cc2c3c([nH]c2cc1S(=O)(=O)N1CCCCC1C)CCCC3=O (configuration not stated)	.	0.86
CCOC(=O)C1=C(C(F)(F)F)Nc2nnnn2C1c1ccc(Br)cc1 (configuration not stated)	.	1.78
O=C(C1CCN(c2nnc(-n3cccc3)s2)CC1)N1CCN(c2ccccc2)CC1	-1.49	-0.14
CCOC(=O)c1c(F)c(F)c(S(C)(=O)=O)c(F)c1F	-0.42	.

Nothing new here: entries from further up.
SMILES	CDC25B-CDK2 inh	TAR Tat displ
CC1=C(C(=O)OC(C)C)C(c2sccc2C)c2c(nc(SCC(C)C)[nH]c2=O)N1 (configuration not stated)	-1.66	1.66
O=C(NCc1ccc2c(c1)OCO2)c1ccc(NC(=O)c2nsc3ccccc23)cc1	.	0.46

Next section:
SMILES	CDC25B-CDK2 inh	TAR Tat displ
CCOc1ccc(-n2nnc(C(=O)O)c2C)cc1	0.61	0.36
COc1ccc(CN2CCC(N3CCCCC3)CC2)cc1OC	-0.29	1.11
Cc1ccc(SCC(=O)OCc2cc(=O)n3nc(C4CC4)sc3n2)cc1	.	0.51
CCCCCc1c(O)nc2n(c1=O)CCCS2	-1.56	1.2
COc1cc2c(cc1OC)C(C(=O)O)C(c1ccc(SC)cc1)N(C)C2=O (configuration not stated)	-0.81	.
CN(C)c1ccccc1CN1CCCN(Cc2ccccc2N(C)C)C1c1ccncc1	-1.83	.
COc1ccc(S(=O)(=O)c2c(-c3ccc(C)cc3)cn3ccccc23)cc1	.	-2.6
COCCn1c(Sc2nc(C)cs2)nc2c1c(=O)[nH]c(=O)n2C	-0.77	0.95
O=C(NCCc1ccccc1)c1c(O)nc2ccccn2c1=O	-0.82	-1.22
CCN(CC)c1nc(-c2ccc(OC)cc2)nc2ccccc12	.	0.64
Cc1cccc(-c2noc(-c3sc4nc[nH]c(=O)c4c3C)n2)c1	-1.28	1.24
O=C(c1cc(-c2ccco2)[nH]n1)N1CCN(Cc2ccc3c(c2)OCO3)CC1	.	-0.64
CC(C)CC(NCC(O)Cn1c2ccccc2c2ccccc21)C(=O)O (configuration not stated)	-1.69	1.45
CC(C)Cc1ccc(C2=CC(c3ccc(C#N)cc3)C(C(N)=O)C(=O)N2)cc1 (configuration not stated)	-0.13	.
O=C(O)C1c2ccccc2C(=O)N2CCSC12 (configuration not stated)	-1.11	.
CCc1cn[nH]c1-c1c(F)cccc1F	-2	.
Cc1cc(-c2nc3ccccc3s2)ccc1NS(=O)(=O)c1cccc(F)c1	.	0.48
CCOc1ccc2c(c1)c(=O)c(S(=O)(=O)c1ccc(F)cc1)cn2CC	-1.05	0.16
CC(=O)Nc1nc(C)c(-c2csc(Nc3ccc(Cl)cc3)n2)s1	-0.18	-0.3
CCCCCC/C=C\CCCCCCCc1cccc(O)c1C(=O)O	.	2.11

Reprinted from the part before: 4 entries; new compounds follow.
SMILES	CDC25B-CDK2 inh	TAR Tat displ
Cc1cc(-c2nc3ccccc3s2)ccc1NS(=O)(=O)c1cccc(F)c1	.	0.48
CCOc1ccc2c(c1)c(=O)c(S(=O)(=O)c1ccc(F)cc1)cn2CC	-1.05	0.16
CC(=O)Nc1nc(C)c(-c2csc(Nc3ccc(Cl)cc3)n2)s1	-0.18	-0.3
CCCCCC/C=C\CCCCCCCc1cccc(O)c1C(=O)O	.	2.11
CCCc1nc(SCc2cc(=O)n3oc(C)cc3n2)n[nH]1	.	0.02
CC(C)C1c2cccn2CCN1C(=O)Nc1cc(F)ccc1F (configuration not stated)	.	0.42
Cc1c(C(=O)Nc2ccc3c(c2)OCCO3)sc2nc[nH]c(=O)c12	.	0.85
c1ccc(-c2nsc(NC3Cc4ccccc4C3)n2)cc1	-0.99	.
CSc1ccc(C2c3c(-c4ccccc4O)n[nH]c3C(=O)N2Cc2ccco2)cc1 (configuration not stated)	0.33	-0.96
CCOC(=O)C(CC)n1cnc2c(nnn2-c2cccc(Cl)c2)c1=O (configuration not stated)	-0.32	-0.4
O=C(NCCC1=CCCCC1)Nc1noc2c1COc1ccccc1-2	.	2.04
CCc1ccc(-c2cc(C)no2)cc1S(=O)(=O)Nc1ccc(C)c(C)c1	.	1.72
O=C(OCc1cc(=O)n2nc(C3CCCCC3)sc2n1)c1cccc(Cl)c1	.	0.99
CCOc1ccc(C2CC(=O)N3CN(c4ccc(OC)cc4OC)CSC3=C2C#N)cc1OC (configuration not stated)	3.34*	-4.55
CC1(C)Cc2nc3sc4c(=O)n(CC(=O)N(c5ccccc5)c5ccccc5)cnc4c3cc2CO1	.	0.18
COc1ccc2c(c1)N(C(=O)CN1C(=O)C3CCCCC3C1=O)C(C)(C)C=C2C (configuration not stated)	-1.29	-0.69
COc1ccc(-c2noc(-c3nnn(-c4ccc(C)c(F)c4)c3C)n2)cc1	.	0.52
CN1C(=O)COc2ccc(C(=O)O)cc21	.	0.25
O=[N+]([O-])c1cc(C(F)(F)F)cc([N+](=O)[O-])c1Sc1ncc2ccccn12	-1.55	.
COc1ccc(S(=O)(=O)NC(C)C)cc1OC	-2.41	0.03
Cc1cc(NC(=O)CN(C)S(=O)(=O)c2cc3c(cc2C)NC(=O)C(C)O3)no1 (configuration not stated)	.	0.34
CC(C)(C)c1csc(N/N=C/c2cccs2)n1	-0.33	.
O=S(=O)(NC1CCCCC1Nc1ccc(F)cc1)c1ccccc1 (configuration not stated)	8.62*	2.87
Nc1c(-c2nc(-c3ccc(F)cc3)no2)nnn1-c1ccc(F)c(Cl)c1	.	-0.02
CCCCNC(=O)C1Cc2cc(S(=O)(=O)N(CC)CC)ccc2N1C(C)=O (configuration not stated)	.	1.12
Cc1cc(=O)[nH]c(SCc2cn3c(C)cc(C)nc3n2)n1	2.15	-1.14

Hits appear at their usual frequency; overall some 0.87% were active at least once.
